Hsc70 ATP site = Hsc70 inhibitors, probe displacement, primary screen, biochemical, fluorescence polarization (AID 568) | Hsc70 fluorescence polarization, probe displacement; higher % means a stronger effect; strong numbers were not always called active | displacement, % at 20 µM, or IC50 in µM where a hit was titrated | 83,000 tested, under 10 active;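 active = displacement above 50% without optical interference and an IC50 on retest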;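 also: ATPase domain with a fluorescein-tagged ATP probe; 0% = vehicle and 100% = excess ADP; read after one hour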
WNV protease inh = WNV NS2B-NS3 proteinase inhibition. P06935. WNV NS2B-NS3 protease, fluorogenic substrate Ex360/Em465; hits give low values. 65,000 compounds, 0.18% hits. z-score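 (tested at a level between 10 and 100 µM)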;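 active = z-score at -3 or under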;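 also: score is relative to mean and spread of the compound wells of a plate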
Target sequence (P06935 1371-1501 limits assumed): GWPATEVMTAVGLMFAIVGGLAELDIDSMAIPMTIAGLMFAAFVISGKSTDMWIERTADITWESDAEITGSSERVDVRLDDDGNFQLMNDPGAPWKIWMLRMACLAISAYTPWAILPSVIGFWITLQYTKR
Target sequence (P06935 1502-1679 limits assumed): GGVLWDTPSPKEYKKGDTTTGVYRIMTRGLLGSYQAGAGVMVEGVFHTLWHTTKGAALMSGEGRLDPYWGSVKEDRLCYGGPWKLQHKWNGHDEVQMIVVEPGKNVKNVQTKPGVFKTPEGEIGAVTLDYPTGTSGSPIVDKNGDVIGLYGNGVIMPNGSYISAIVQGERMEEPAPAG
MT1-MMP promoter = inhibitors of MT1-MMP promoter transcription, cell-based, luciferase reporter, luminescence (AID 618) | MT1-MMP promoter luciferase reporter cells, luminescence | calls from a first round at 10 µM; hits with a dose series show EC50 in µM | 87,000 compounds, 0.62% hits;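 active = over half of the reporter light lost at 10 µM or EC50 under 50 µM; inactive = the rest and hits that failed the dose series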;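 also: actives suppress MT1-MMP promoter-driven transcription so potencies describe inhibitors; HT1080 fibrosarcoma cells; overnight exposure; toxic or luciferase-blocking compounds were not removed from the actives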
* marks the source's active call; other numbers are inactive results.

CC(C)n1c(-c2ccc(N(C)C)cc2)nc2ccccc21 was read as Hsc70 ATP site -2.1%, WNV protease inh 0.47 and MT1-MMP promoter inactive.
For CCOc1cc2c(cc1C(C)(C)C)NC(=O)CS2 the results were Hsc70 ATP site -0.3%, WNV protease inh 0.23 and MT1-MMP promoter inactive.
`CCS(=O)(=O)N1CCC(C(=O)NCCCN2CCC(Cc3ccccc3)CC2)CC1` gave Hsc70 ATP site -3.0%, WNV protease inh 0.91 and MT1-MMP promoter inactive.
For Fc1ccc(-c2cnc(-c3cccs3)o2)cc1 the results were Hsc70 ATP site 0.7% and MT1-MMP promoter inactive.
`Cc1cc(C(=O)COC(=O)CCCN2C(=O)c3ccccc3C2=O)c(C)n1C` gave Hsc70 ATP site 3.4%, WNV protease inh -0.51 and MT1-MMP promoter inactive.
Screening Cc1c(-n2cc(C(=O)O)c(=O)c3cc(F)c(N4CCCC4)c(F)c32)c(=O)n(-c2ccccc2)n1C returned Hsc70 ATP site -5.0%, WNV protease inh 2 and MT1-MMP promoter inactive.
CCOC(=O)c1ccccc1NC(=O)C1COc2ccccc2O1 (centres undefined) was read as Hsc70 ATP site -3.6%, WNV protease inh 0.07 and MT1-MMP promoter inactive.
O=C(NCc1ccccc1)NC1(C(=O)N2CCN(c3ccccc3)CC2)CCCCC1 was read as Hsc70 ATP site 2.2%, WNV protease inh 0.6 and MT1-MMP promoter inactive.
Screening COc1ccc(Nc2nnc(Cc3ccc(Cl)cc3)c(=O)[nH]2)c(OC)c1 returned Hsc70 ATP site 2.0%, WNV protease inh -0.67 and MT1-MMP promoter inactive.
`O=C(CSc1nnc2c(n1)[nH]c1ccccc12)OCc1ccccc1` gave Hsc70 ATP site -1.3% and MT1-MMP promoter inactive.
S=c1oc(-c2ccncc2)nn1CCc1ccncc1 was read as Hsc70 ATP site -3.7%, WNV protease inh 0.26 and MT1-MMP promoter inactive.
`Oc1ccc(CN2CCCCC2)c2cccnc12` gave Hsc70 ATP site 2.2% and MT1-MMP promoter inactive.
Screening CCNC(=O)NC(C(=O)OC)C12CC3CC(CC(C3)C1)C2 (centres undefined) returned Hsc70 ATP site 3.9%, WNV protease inh -1.6 and MT1-MMP promoter inactive.
For C/C(Cl)=C\CNC(C)c1ccccc1 (centres undefined) the results were Hsc70 ATP site -5.3%, WNV protease inh -1.9 and MT1-MMP promoter inactive.
c1ccc(N(c2ccccc2)c2nc(N3CCCC3)nc(-n3ccnc3)n2)cc1 was read as Hsc70 ATP site -2.3%, WNV protease inh 0.44 and MT1-MMP promoter inactive.
COc1cccc(NC(=O)NCCCN2CCN(c3ccc(F)cc3)CC2)c1 was read as Hsc70 ATP site -1.9%, WNV protease inh 0.36 and MT1-MMP promoter inactive.
Screening CCN(CC)S(=O)(=O)c1ccc(NC(=O)CN(c2cccc(F)c2)S(C)(=O)=O)cc1 returned Hsc70 ATP site 4.2%, WNV protease inh 1.3 and MT1-MMP promoter inactive.
Screening O=C(CSc1nnnn1-c1ccccc1)N1CCN(C(=O)c2ccco2)CC1 returned Hsc70 ATP site -5.0%, WNV protease inh -0.16 and MT1-MMP promoter inactive.
For Cc1ccc(-c2[nH]c(=O)n3ccncc23)s1 the results were Hsc70 ATP site 40%, WNV protease inh -1.2 and MT1-MMP promoter inactive.
Screening Cc1ccccc1CN1C(=O)C(O)(CC(=O)c2ccncc2)c2ccccc21 (centres undefined) returned Hsc70 ATP site -0.6%, WNV protease inh -0.83 and MT1-MMP promoter inactive.
For COc1ccc(CCNc2oc(COc3ccc(F)cc3)nc2C#N)cc1 the results were Hsc70 ATP site -5.7%, WNV protease inh 0.11 and MT1-MMP promoter inactive.
CC(=O)Oc1ccccc1N1C(=O)c2ccc(C(=O)O)cc2C1=O was read as Hsc70 ATP site -9.4%, WNV protease inh 0.28 and MT1-MMP promoter inactive.
COC(=O)C1=CN(C(C)C)C=C(C(=O)OC)C1c1cc2c(cc1Br)OCO2 was read as Hsc70 ATP site 11%, WNV protease inh -0.31 and MT1-MMP promoter inactive.
Screening CCOC(=O)c1[nH]c2ccc(OCC)cc2c1NC(=O)CN1CCC2(CC1)OCCO2 returned Hsc70 ATP site 1.4%, WNV protease inh 1.1 and MT1-MMP promoter inactive.
For Cc1cc(Cl)ccc1NC(=O)CSc1nnc(-c2ccncc2)n1Cc1ccco1 the results were Hsc70 ATP site 3.8%, WNV protease inh -0.37 and MT1-MMP promoter inactive.
Screening COc1ccc(OCC(O)COc2ccc(C(=O)O)cc2)cc1 (centres undefined) returned Hsc70 ATP site -2.0%, WNV protease inh -1.2 and MT1-MMP promoter inactive.
Screening O=C(COC(=O)c1ccccn1)Nc1nccs1 returned Hsc70 ATP site 4.8%, WNV protease inh -0.84 and MT1-MMP promoter inactive.
O=c1cc(O)c2c(=O)[nH]c(=O)n(-c3ccccc3)c2[nH]1 was read as Hsc70 ATP site -5.0%, WNV protease inh 0.26 and MT1-MMP promoter inactive.
Screening O=C(Nc1nc2n(n1)C(c1ccccc1)CC(c1ccc(Cl)cc1)N2)c1ccco1 (centres undefined) returned Hsc70 ATP site -8.3%, WNV protease inh 0.5 and MT1-MMP promoter inactive.
For O=C(CN(Cc1ccco1)C(=O)CCC(=O)Nc1nccs1)NCc1ccccc1 the results were Hsc70 ATP site 0.4% and MT1-MMP promoter inactive.
`COCCCNC(=O)CCCn1c(=O)c2ccccc2n(CC(=O)Nc2c(C)cc(C)cc2C)c1=O` gave Hsc70 ATP site -8.0%, WNV protease inh 1.1 and MT1-MMP promoter inactive.
`O=C1CC(=O)N(CCc2ccc(F)cc2)C(=O)N1` gave Hsc70 ATP site 2.7% and MT1-MMP promoter inactive.
Screening Cc1c(C(=O)NC(C)C)oc2c1-c1[nH]ncc1CC2 returned Hsc70 ATP site -3.3%, WNV protease inh -1.1 and MT1-MMP promoter inactive.
Screening CC(c1ccco1)N(C(=O)C12CC3CC(CC(C)(C3)C1)C2)c1ccccn1 (centres undefined) returned Hsc70 ATP site 2.6% and MT1-MMP promoter inactive.
Screening COC(=O)COc1ccc(C(=O)OC)cc1 returned Hsc70 ATP site 12%, WNV protease inh -0.27 and MT1-MMP promoter inactive.
For CC(=NCCCNC1CCCCC1)C1=C(O)CC(C)(C)CC1=O the results were Hsc70 ATP site 1.8%, WNV protease inh -1.8 and MT1-MMP promoter inactive.
Screening CCOc1ccc(S(=O)(=O)Nc2ccccc2C(=O)NCc2ccco2)cc1 returned Hsc70 ATP site 3.1%, WNV protease inh -0.71 and MT1-MMP promoter inactive.
For COc1ccc(-c2nc(CSCC(=O)N3CCc4ccccc4C3)c(C)o2)cc1OC the results were Hsc70 ATP site 8.7%, WNV protease inh 1 and MT1-MMP promoter inactive.
Screening O=C(OCn1nnc2ccccc2c1=O)C1=COCCO1 returned Hsc70 ATP site 5.7%, WNV protease inh -1 and MT1-MMP promoter inactive.
For CCCCN(C)C(=O)c1sc2ncn(CC)c(=O)c2c1C the results were Hsc70 ATP site -8.7%, WNV protease inh -0.48 and MT1-MMP promoter inactive.

An excerpt from above in order of length of the SMILES, highest first:
`COCCCNC(=O)CCCn1c(=O)c2ccccc2n(CC(=O)Nc2c(C)cc(C)cc2C)c1=O` gave Hsc70 ATP site -8.0%, WNV protease inh 1.1 and MT1-MMP promoter inactive.
COC(=O)C1=CN(C(C)C)C=C(C(=O)OC)C1c1cc2c(cc1Br)OCO2 was read as Hsc70 ATP site 11%, WNV protease inh -0.31 and MT1-MMP promoter inactive.
Screening COc1ccc(OCC(O)COc2ccc(C(=O)O)cc2)cc1 (centres undefined) returned Hsc70 ATP site -2.0%, WNV protease inh -1.2 and MT1-MMP promoter inactive.
Screening O=C(COC(=O)c1ccccn1)Nc1nccs1 returned Hsc70 ATP site 4.8%, WNV protease inh -0.84 and MT1-MMP promoter inactive.
Screening COC(=O)COc1ccc(C(=O)OC)cc1 returned Hsc70 ATP site 12%, WNV protease inh -0.27 and MT1-MMP promoter inactive.

Continuation:
Screening CCC(C)NC(=O)C(CCSC)NC(=O)c1ccccc1 (centres undefined) returned Hsc70 ATP site 7.4% and MT1-MMP promoter inactive.
`CCOC(=O)C1=C(C)OC(N)=C(C#N)C1c1cc2ccccc2nc1N1CCCCC1` (centres undefined) gave Hsc70 ATP site 21%, WNV protease inh -0.64 and MT1-MMP promoter inactive.
For COc1cc2c(cc1OC)-c1cc(NC3CCCCCCC3)nc(=O)n1CC2 the results were Hsc70 ATP site -5.9%, WNV protease inh 0.43 and MT1-MMP promoter inactive.
`Cc1cc(C(=O)OCC(=O)c2c(N)n(C)c(=O)n(C)c2=O)c(C)o1` gave Hsc70 ATP site 0.3%, WNV protease inh -0.28 and MT1-MMP promoter inactive.
Screening CCOC(=O)c1cn2cccnc2n1 returned Hsc70 ATP site 1.6% and MT1-MMP promoter inactive.
For CCN(CC)S(=O)(=O)c1ccc(-c2nnc(SCC(=O)Nc3nc(C)cs3)o2)cc1 the results were Hsc70 ATP site 0.7%, WNV protease inh 0.72 and MT1-MMP promoter inactive.
For CCCN1CCN(C(=O)CN2C(=O)CC(C)(C)S(=O)(=O)c3ccccc32)CC1 the results were Hsc70 ATP site -8.2%, WNV protease inh 1.6 and MT1-MMP promoter inactive.
CS(=O)(=O)N(CC(=O)Nc1cccnc1)c1ccc2c(c1)OCO2 was read as Hsc70 ATP site -0.8%, WNV protease inh -0.59 and MT1-MMP promoter inactive.
Screening COc1ccc(C2SCC(=O)N2CCCN(C)C)cc1 (centres undefined) returned Hsc70 ATP site 3.5% and MT1-MMP promoter inactive.
Screening CCc1ccc(N2CC(C(=O)NCc3ccc4c(c3)OCO4)CC2=O)cc1 (centres undefined) returned Hsc70 ATP site -4.4%, WNV protease inh 0.96 and MT1-MMP promoter inactive.
For CC(CO)N1CCS(=O)(=O)CC1 (centres undefined) the results were Hsc70 ATP site 0.7% and MT1-MMP promoter inactive.
CC(C)OCCCN1C(=O)c2[nH]nc(-c3ccccc3O)c2C1c1cccc(Cl)c1 (centres undefined) was read as Hsc70 ATP site -2.8%, WNV protease inh -0.03 and MT1-MMP promoter inactive.
For Cn1c2ccccc2c2nn(-c3ccccc3)c(=O)cc21 the results were Hsc70 ATP site -1.4%, WNV protease inh -3.5* and MT1-MMP promoter inactive.
`O=C(c1ccco1)N1CCN(C(c2ccccc2)c2nnnn2C2CCCC2)CC1` (centres undefined) gave Hsc70 ATP site -3.4% and MT1-MMP promoter inactive.
Screening O=C(NCc1nnc(SCC(=O)N2CCCCCC2)o1)c1ccco1 returned Hsc70 ATP site -0.5%, WNV protease inh -0.42 and MT1-MMP promoter inactive.
Screening COc1ccc(S(=O)(=O)Nc2ccccc2C(=O)OC2CCCN(C)C2)cc1OC (centres undefined) returned Hsc70 ATP site 3.8%, WNV protease inh 1.4 and MT1-MMP promoter inactive.
Screening CN1CCN(Cc2c(C#N)c3ccccc3n2C)CC1 returned Hsc70 ATP site 0.9%, WNV protease inh -0.84 and MT1-MMP promoter inactive.
For O=C(OCCCCN1C(=O)c2ccccc2C1=O)c1n[nH]c2ccccc12 the results were Hsc70 ATP site -0.1%, WNV protease inh 0.06 and MT1-MMP promoter inactive.
Screening CCn1nc(NS(=O)(=O)c2ccccc2)c2cc3cccc(C)c3nc21 returned Hsc70 ATP site -6.1%, WNV protease inh -0.23 and MT1-MMP promoter inactive.
`COc1ccc(CCN(C)CCCC(C#N)(c2cc(OC)c(OC)c(OC)c2)C(C)C)cc1OC` (centres undefined) gave Hsc70 ATP site -3.8%, WNV protease inh -0.57 and MT1-MMP promoter inactive.
Screening O=C1c2oc3ccc(Br)cc3c(=O)c2C(c2cccc(F)c2)N1CCO (centres undefined) returned Hsc70 ATP site -4.8%, WNV protease inh 0.31 and MT1-MMP promoter inactive.
COc1cc2c(cc1OC)CN(Cc1ccc(C)s1)CC2 was read as Hsc70 ATP site -1.1% and MT1-MMP promoter inactive.
For Cc1nc2sc(C#N)c(N)c2c2c1CCCC2 the results were Hsc70 ATP site 3.8%, WNV protease inh 0.66 and MT1-MMP promoter inactive.
For Cc1nc2c(-c3ccccc3)c(C)nn2c(C)c1CCC(=O)N1CCOCC1 the results were Hsc70 ATP site 2.7%, WNV protease inh 0.15 and MT1-MMP promoter inactive.
O=C1CN(c2nnnn2-c2ccccc2)CCN1 was read as Hsc70 ATP site 3.5% and MT1-MMP promoter inactive.
COCCN1C(=O)c2oc3cc(C)c(C)cc3c(=O)c2C1c1cccc(O)c1 (centres undefined) was read as Hsc70 ATP site -2.7%, WNV protease inh 0.73 and MT1-MMP promoter inactive.
For Cc1csc(NC(=O)C2CCCO2)n1 (centres undefined) the results were Hsc70 ATP site 4.6%, WNV protease inh -0.4 and MT1-MMP promoter inactive.
`CCCc1nc2oc(C(=O)c3ccccc3)c(N)c2c2c1COC(C)(C)C2` gave Hsc70 ATP site 3.0% and MT1-MMP promoter inactive.
`C=CCn1c(SCc2nc3ccccc3nc2C)nnc1-c1ccoc1C` gave Hsc70 ATP site 3.3%, WNV protease inh 1.3 and MT1-MMP promoter inactive.
`O=C(Oc1ccc2c(=O)c(Cl)coc2c1)c1cccnc1` gave Hsc70 ATP site -2.2% and MT1-MMP promoter inactive.
For Cc1ccc(S(=O)(=O)N(CC(O)CN2CCOCC2)c2cc(Cl)ccc2Cl)cc1 (centres undefined) the results were Hsc70 ATP site -6.1%, WNV protease inh -0.81 and MT1-MMP promoter inactive.
`COc1ccc(CNC(=O)c2cc3c(=O)n4ccccc4nc3n(Cc3cccnc3)c2=N)cc1` gave Hsc70 ATP site -64%, WNV protease inh 0.62 and MT1-MMP promoter inactive.
`COc1ccc(Cl)cc1N1C(=O)[C@@H]2C(c3cccc(OC)c3OC)=NO[C@@H]2C1=O` gave Hsc70 ATP site 1.0%, WNV protease inh -0.31 and MT1-MMP promoter inactive.

Source: PubChem BioAssay (several laboratories)
